# Source: PubChem BioAssay (NMMLSC)
# Autofluor counter = flagged as autofluorescent in microsphere protease counterscreen; fluorescence intensity (concentration not given with the values); 360,000 tested, 3.1% active; compound autofluorescence counterscreen, microsphere flow cytometry; active compounds read high;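 active = at least 3 SD above the mean of all compounds, about 16000 in these data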;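 also: 100 nL of 1 mM stock went into each well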
# Active calls of the source: *.
smiles | Autofluor counter
O=C(Nc1ccc2c(c1)[C@@H]1C[C@@H](CC(=O)N3CCOCC3)O[C@@H](CO)[C@@H]1O2)NC1CCCC1 | 3050
COC(=O)[C@]12CCCCC=C1N(Cc1ccco1)C(=O)[C@H](CC(=O)NCCCN1CCCC1=O)C2 | 5767
O=C(NC(=S)Nc1cc(Cl)ccc1Cl)c1ccco1 | 3874
Cc1ccc(NC(=O)CN(C)C(=O)COC(=O)COc2cc(C)cc(C)c2)cc1 | 3454
COC(=O)[C@]12CCCCC=C1N(Cc1cccc3ccccc13)C(=O)[C@H](CC(=O)NCc1cccs1)C2 | 5941
CCCCCCN1CCN(C2CN(Cc3cn(Cc4cccc(C(F)(F)F)c4)nn3)S(=O)(=O)C2)CC1 (centres undefined) | 5953
O=[N+]([O-])c1ccc(CN2CC(N3CCN(CCO)CC3)CS2(=O)=O)cc1 (centres undefined) | 3778
O=C(c1cc(C2CC2)nn1-c1ccccc1)N1CCN(S(=O)(=O)c2ccc(F)cc2)CC1 | 4002
CCn1c(CN2CCC(C)CC2)nc2cc(S(=O)(=O)N3CCCCC3)ccc21 | 3856
O=C(O)C1=C(C(=O)O)C2CCC1C2 | 3500
Cc1ccc(F)c(S(=O)(=O)NC(=O)C2(C)CCN2C(=O)c2ccc(C3CCCCC3)cc2)c1 (centres undefined) | 3568
Cc1ccc2nc(-c3ccc(Br)cc3)cc(C(=O)NCC3CCCO3)c2c1 (centres undefined) | 3560
CC(=O)N1CCCC(C)(C(=O)N(C)Cc2cccc3ccccc23)C1 (centres undefined) | 4005
Cc1c(C(=O)NNC(=O)c2csc(N3CCOCC3)n2)oc2ccc(Br)cc12 | 3833
C[C@H](O)[C@@H]1CN2CCc3c([nH]c4ccccc34)[C@@H]2C[C@@H]1N(C)Cc1cc(Cl)cc(Cl)c1 | 3632
Cc1cc2nc(C(C)(C)C)c(Cc3ccccc3)n2c(C)c1Br | 6022
Cc1ccc(S(=O)(=O)N2C[C@H]3C(=O)C[C@@H](c4ccccc4F)N(S(=O)(=O)c4ccc(C)cc4)[C@H]3C[C@H]2c2ccccc2)cc1 | 4624
COc1ccc([C@@H]2C[C@H]3[C@@H](CN2S(=O)(=O)c2ccccc2)C(=O)C[C@@H](c2cccc(Cl)c2)N3S(=O)(=O)c2ccc(C)cc2)cc1 | 6150
C[C@H](CO)N1C[C@H](C)[C@H](CN(C)C(=O)c2ccncc2)OCc2ccccc2-c2c(n(C)c3ccccc23)C1=O | 2798
COCCNc1nc(NCc2ccccc2OC)c2sccc2n1 | 3781
CCN(CC)C(=O)c1cccc(-c2csc(C(C)(NC(C)=O)c3ccc(OC)cc3)n2)c1 (centres undefined) | 3383
O=C(NCc1ccc(F)cc1)N1[C@H]2CC[C@@H]1C=C(c1ccc(F)cc1OCc1ccccc1)C2 | 3606
COc1ccc(C=C2OC(=O)C(C(C)=O)=C2O)cc1 | 2857
COc1ccccc1N=NNc1ccc(S(=O)(=O)NC(C)=O)cc1 | 5148
C[C@H]1COc2cccc(N3CCC[C@H]3CO)c2S(=O)(=O)N1 | 6064
CCc1nc2ccc(C(=O)N3CCN(C(=O)c4ccco4)CC3)cn2c1N(C=O)Cc1ccc(OC)cc1 | 3788
O=C1C(=C(c2ccccc2)N2CCOCC2)Cc2ccccc21 | 3415
C[C@H](NC(=O)[C@@H]1CCCN1C(=O)[C@@H]1CCCN1)c1ccccc1 | 4586
COc1ccc(C2=Nc3ccccc3NC(=O)C2N(C(=O)c2ccnc3ccccc23)c2ccccc2)cc1 (centres undefined) | 4326
CN(C(=O)CSc1nc(N)cc(=O)[nH]1)C1CCCCC1 | 4153
O=C1O[C@@H](c2ccccc2)C[C@@H](O)[C@H](O)CCCc2ccccc21 | 5838
COc1ccc([C@H]2CC(=O)C[C@@H](CCn3cccn3)O2)cc1 | 6429
Cc1ccc(CN2CC(N3CCN(CCO)CC3)CS2(=O)=O)cc1 (centres undefined) | 5968
COCCNC(=O)C1(C)CCCN(Cc2sc(C)nc2C)C1 (centres undefined) | 3671
CC(=O)OC[C@@H]1CN(Cc2ccccc2)C[C@H](n2cnc3c(NC4CCC4)ncnc32)O1 | 3738
O=P1(NCCCl)OCCC(OO)N1CCCl (centres undefined) | 5056
CC1Cn2c(Cc3ccccc3)nnc2S1 (centres undefined) | 5824
CC(C)(C)c1ccc(C(=O)N2CCC2(C)C(=O)NCc2cccc3ccccc23)cc1 (centres undefined) | 3669
CCOc1ccc(CCN2C(=O)C(=O)N([C@@H](Cc3ccccc3)CN3CCC[C@H]3CN3C(=O)C(=O)NC[C@@H]3Cc3ccc(O)cc3)C[C@@H]2CC(C)C)cc1 | 6049
Cc1ccc(C=O)c([B-](F)(F)F)c1 | 3470
Clc1cccc(CNc2ccn3nc(-c4ccc(OCCN5CCOCC5)cc4)cc3n2)c1 | 4330
c1cc2c(c(CC3CO3)c1CC1CO1)OCCOCCOCCOCCO2 (centres undefined) | 3620
COc1ccc(-c2nc3ccc(C)cn3c2Cc2ccccc2)cc1OC | 4427
COc1cc(/C=C/C(=O)OCC(=O)N2CC(C)OC(C)C2)ccc1OCC#N (centres undefined) | 4438
CC1(C(=O)NS(=O)(=O)c2ccc(Cl)cc2)CCN1C(=O)C/C=C/c1ccccc1 (centres undefined) | 4051
CC1(C(=O)NS(=O)(=O)c2cccc(Cl)c2)CCN1C(=O)C1CC1 (centres undefined) | 4094
CCc1cc(C(=O)NC2CCCc3c2cnn3-c2ccc(F)cc2F)no1 (centres undefined) | 3425
COC(=O)c1cc(=O)nc(NN=C2CCCCC2)s1 | 5961
O=C(NC1CC1)c1ccc2nc([C@H]3C[C@H](O)[C@@H](CO)O3)[nH]c2c1 | 3647
N#CCCN(CCCN1CCOCC1)CN1C(=O)c2ccccc2C1=O | 3542

# Single entries from above.
# CCn1c(CN2CCC(C)CC2)nc2cc(S(=O)(=O)N3CCCCC3)ccc21 in Autofluor counter: 3856
# Cc1ccc(C=O)c([B-](F)(F)F)c1 in Autofluor counter: 3470

# (list continues)
smiles | Autofluor counter
COc1ccc(C(=O)N2CCC2(C)C(=O)O)cc1F (centres undefined) | 3432
C[C@H](O)C#Cc1cnc2c(c1)C(=O)N([C@H](C)CO)C[C@@H](C)[C@@H](CN(C)Cc1ccc(-c3ccccc3)cc1)O2 | 3581
CCCCOc1ccc(S(=O)(=O)NC(=O)C2(C)CCN2C(=O)Cc2ccccc2Cl)cc1 (centres undefined) | 3499
CCOC(=O)[C@]12Cc3cc(OC)ccc3[C@H]1N(Cc1ccccc1)C(=O)c1cc(OC)ccc12 | 5811
COc1cccc(S(=O)(=O)Nc2ccc3c(c2)[C@@H]2C[C@@H](CC(=O)NCc4ccc(Cl)cc4)O[C@@H](CO)[C@@H]2O3)c1 | 5828
COc1cccc(CNc2nc3cc(-c4ccccc4CO)sc3c(=O)n2C)c1 | 2939
COCCNC(=O)C1CCCN(C(=O)c2cc(C)n(C(C)(C)C)n2)CC1 (centres undefined) | 2738
CCCCCCc1nc2nc(Cl)c(Cl)nc2[nH]1 | 3746
COc1ccc(C)cc1-n1nnnc1SCc1nc(N)nc(N(C)C)n1 | 3870
CC(=O)Nc1cccc(NC(=O)NC2CC(=O)N(c3ccc4c(c3)OCCO4)C2)c1 (centres undefined) | 4301
COc1cc(NC(=O)C2(C)CCCN2C(=O)C(C)C)cc(OC)c1OC (centres undefined) | 3212
C[C@H]1CN([C@@H](C)CO)C(=O)CCCn2nncc2CO[C@H]1CN(C)S(C)(=O)=O | 3663
C(=C\c1ccccc1)/CN1CCN(C(CCc2ccccc2)c2nnnn2-c2ccc3c(c2)OCCO3)CC1 (centres undefined) | 6229
CNC(=O)C1CN(C(=O)c2cccc(S(=O)(=O)N3CCc4ccccc43)c2)c2ccccc2O1 (centres undefined) | 3803
CC1(C(=O)NCc2cccc3ccccc23)CCN1Cc1ccccc1OC(F)F (centres undefined) | 4203
CCN(CC)c1ccc(/C=N/NC(=O)c2nnn(-c3nonc3N)c2CN(C)C2CCCCC2)cc1 | 4092
Cc1cc(C)n(C(N)=NC(=O)c2ccccc2)n1 | 3953
O=C(COC(=O)c1ccc(S(=O)(=O)N2CCCCC2)cc1)NC1CCCCC1 | 3624
Fc1ccc(-c2nc3c4ccccc4ccn3c2CC2CCCCC2)cc1 | 6415
CCCCNC(=O)C(NC(=O)c1cccc(C(F)(F)F)c1)C(=O)c1ccccc1 (centres undefined) | 6213
CC(=O)Nc1ccc(Cl)cc1C(=O)c1ccc[nH]1 | 3749
COc1cccc(/C=C/C(=O)OCC(=O)c2ccc[nH]2)c1 | 3620
Cc1cc(F)ccc1-c1cc(C(=O)NCc2ccccc2)[nH]n1 | 2788
CCOC(=O)[C@]12CCC=C1N(Cc1ccco1)C(=O)[C@H](CC(=O)NCc1cccc(C(F)(F)F)c1)C2 | 4286
FC(F)(F)c1ccc(-c2nc3ccccc3s2)cc1 | 6362

# Ordered by count of non-hydrogen atoms (highest first): some entries from above.
smiles | Autofluor counter
CCOC(=O)[C@]12Cc3cc(OC)ccc3[C@H]1N(Cc1ccccc1)C(=O)c1cc(OC)ccc12 | 5811
COc1ccc(C)cc1-n1nnnc1SCc1nc(N)nc(N(C)C)n1 | 3870
Cc1cc(F)ccc1-c1cc(C(=O)NCc2ccccc2)[nH]n1 | 2788

# (continued)
smiles | Autofluor counter
COc1ccc(-c2ccc3c(c2)O[C@@H](CN(C)C(=O)c2ccccc2F)[C@@H](C)CN([C@@H](C)CO)S3(=O)=O)cc1 | 4010
Nc1c(Br)cc(Br)c2c1[nH]c(=O)c1ccccc12 | 3428
COc1ccc(Nc2nc3cc(-c4sccc4C)sc3c(=O)n2C)cc1OC | 3470
CC1=C(C(=O)N(C)C)CC(CC(=O)NC2CC2)C(=O)N1Cc1ccccc1 (centres undefined) | 3712
Cc1ccccc1S(=O)(=O)N(C)C[C@H]1OCc2cn(nn2)CCCC(=O)N([C@H](C)CO)C[C@@H]1C | 4236
CCCCN1C(=O)C(CC(=O)NCCN2CCOCC2)CC(C(=O)N(CC)CC)=C1C (centres undefined) | 3434
C[C@@H]1CN([C@H](C)CO)C(=O)c2c(c3ccccc3n2C)-c2ccccc2CO[C@H]1CN(C)Cc1cccc(C(=O)O)c1 | 3315
CCCCN(C=O)c1c(CC)nc2c(OCC3CCCCC3)cccn12 | 3872
CSc1ccc(OC2(C)CCN(Cc3ccc(OC(C)C)cc3)C2)cc1 (centres undefined) | 3569
Cc1ccc(SCc2c(C(=O)N/N=C/c3ccc(C)o3)nnn2-c2nonc2N)cc1 | 3058
COc1ccccc1CNC(=O)C(=O)NCC1CCCN1S(=O)(=O)c1cc(C)ccc1C (centres undefined) | 3684
CSc1ccc(CN2C(=O)C(C)Sc3ccc(C(C)=O)cc32)cc1 (centres undefined) | 2982
COCn1ccnc1C(=O)c1ccco1 | 4008
CNc1ncnc2c1ncn2[C@H]1CN(CCN2CCOCC2)C[C@@H](CO)O1 | 3884
CCc1nc2c(OCc3cc(Cl)cc(Cl)c3)cccn2c1N(C)C(=O)c1ccc(C)cc1 | 3052
CCc1nc2ccc(C(=O)NCCN3CCNC3=O)cn2c1N(CC)Cc1cccc(Br)c1 | 2774
c1ccc2c(-c3cnc4cccnn34)cncc2c1 | 3752
CC(CN1CCCCC1)NC(=O)c1scnc1-c1ccccc1 (centres undefined) | 5349
O=C1NC[C@@H](CCCCN2C[C@H](Cc3ccc(O)cc3)N(CCc3ccc(O)cc3)C(=O)C2=O)N(CCc2ccc(O)cc2)C1=O | 5304
CN(Cc1cnn(-c2ccccc2)c1)C(=O)c1cccc(S(=O)(=O)N(C)c2ccccc2)c1 | 3417
O=C(NCC1CCCO1)c1ccc(Cl)c(NS(=O)(=O)c2ccc(F)cc2)c1 (centres undefined) | 3400
CCOC1=C2[C@@H](CN(S(=O)(=O)c3ccc(C)cc3)[C@H]2c2ccccc2F)[C@H]2C(=O)N(CC)C(=O)[C@H]2C1 | 5822
CC1(C(=O)NS(=O)(=O)c2ccc(C#N)cc2)CCN1C(=O)CCC1CCCC1 (centres undefined) | 4003
OC[C@@H]1CN(Cc2ccccc2)C[C@H](n2cnc3c(N4CCN(c5ccccc5)CC4)ncnc32)O1 | 2786
Cc1cc2nc(-c3ccco3)c(Cc3cccc(Cl)c3)n2c(C)c1Br | 7616
CCCNC(=O)C1(C)CCCN(CC(=O)c2ccc3c(c2)OCCO3)C1 (centres undefined) | 3077
O=C(O)CN=C(Nc1cc(Cl)cc(Cl)c1)NC(c1ccccc1)c1ccccc1 | 5883
COc1ccc(NC(=O)N(C)C[C@H]2OCc3cnnn3CCCC(=O)N([C@H](C)CO)C[C@@H]2C)cc1 | 3284
Cc1noc(C)c1C(=O)N(C)C[C@@H]1OCc2ccccc2-c2c(n(C)c3ccccc23)C(=O)N([C@H](C)CO)C[C@H]1C | 3329
C[C@H](CO)N1C[C@H](C)[C@@H](CN(C)C(=O)c2ccccn2)Oc2cc(Br)ccc2S1(=O)=O | 3689
CCc1noc(C)c1C(=O)N1CCN(c2ccc([N+](=O)[O-])cc2)CC1 | 3919
COc1ccccc1CN1CC(C(=O)NCC2(O)CCCCC2)CCC1=O (centres undefined) | 3873
CCCCn1nnnc1C(c1cc2ccccc2o1)N1CCCN(C(=O)OC(C)(C)C)CC1 (centres undefined) | 6284
Nc1nc2c(ncn2[C@@H]2O[C@H](CNC(=O)[C@H](N)C3CCCCC3)[C@@H](O)[C@H]2O)c(=O)[nH]1 | 6287
COc1ccc(C2OC(CCc3ccccc3)CC3=C2C(=O)OC(C)(C)O3)cc1 (centres undefined) | 3801
Cc1ccc(F)cc1C(=O)N1CCCC(c2cc(C(=O)NCc3ccc(F)cc3)no2)C1 (centres undefined) | 2964
COc1cccc(C(O)c2ncc(-c3ccc(C(F)(F)F)cc3)[nH]2)c1 (centres undefined) | 3486

# Among those listed so far, four contain a COOH group:
smiles | Autofluor counter
O=C(O)C1=C(C(=O)O)C2CCC1C2 | 3500
COc1ccc(C(=O)N2CCC2(C)C(=O)O)cc1F (centres undefined) | 3432
C[C@@H]1CN([C@H](C)CO)C(=O)c2c(c3ccccc3n2C)-c2ccccc2CO[C@H]1CN(C)Cc1cccc(C(=O)O)c1 | 3315
O=C(O)CN=C(Nc1cc(Cl)cc(Cl)c1)NC(c1ccccc1)c1ccccc1 | 5883

# These rows are one share of the data; rates above refer to the full screens.
